High-throughput results: PubChem, ICCB-Longwood Screening Facility, Harvard Medical School
Ba CapD inh – CapD enzyme inhibition | z-score (no concentration beside the values) | AID 492967 | hit rate 0.23% among 140,000 | purified CapD enzyme, fluorescence intensity read-out; active compounds read low; some hits fall short of the stated cut;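 active means z-score under -4 in either of two replicates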;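 further: stock transfer was 100 nL into about 40 µL; score is relative to mean and spread of the plate; one replicate is shown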
AID504770 – growth inhibitors of E. coli YBA685 in a screen for V. cholerae RctB (chromosome II replication) inhibitors | z-score (test concentration not listed) | hit rate 0.27% among 130,000 | E. coli YBA685 rctB-dependent plasmid, OD600 growth, 3 h; active compounds read low;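 active means z-score under -2 on both plates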;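 further: wells of about 30 µL received 100 nL stock; score is relative to mean and SD of the test wells; the first replicate is given; strong numbers were not always called active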
The depositor's hits bear a star; / = not tested or not shown; & = joins results of further samples.

Below each compound: Ba CapD inh	AID504770
CN(C)S(=O)(=O)c1ccccc1
  0.38	1.8
O=S1(=O)c2ccccc2S(=O)(=O)N1c1cccc(C(F)(F)F)c1
  -0.64	/
CCCCn1c(=O)cc(O)c2ccccc21
  1.6	-0.95
COc1ccc(-c2nc(-c3ccc4c(c3)C(=O)c3ccccc3-4)c(-c3ccccc3)[nH]2)c(OC)c1
  0.05	/
COc1cc(OC)nc(-c2cccc(C(F)(F)F)c2)n1
  -0.39	/
COc1cc(COC(=O)c2ccc3c(c2)NC(=O)C2CCCN32)ccc1OC(F)F (stereo not given)
  /	0.15
O=C(Cn1ncc2ccccc21)NCCc1ccccc1
  0.24	-0.75
Cc1ccc(CCNC(=O)CCCc2cn(C)c3ccccc23)cc1
  -0.22	0.85
O=C1c2cccc3cccc(c23)C(=O)N1CC1CCN(C(=O)C23CC4CC(CC(C4)C2)C3)CC1
  5.3	/
CCCc1cc(=O)oc2cc(OCC(=O)NC3CCCC3)c(Cl)cc12
  21	-1.8
C/C(=N\O)c1nnn(-c2cc(C(F)(F)F)cc(C(F)(F)F)c2)c1C
  -0.07	-1.1
COc1ccc(-c2cc(C(=O)Nc3ccccc3F)c3ccccc3n2)cc1OC
  8.9	/
CN1CCN(c2ccc(Nc3ccnc4cc(Cl)ccc34)cc2)CC1
  -0.73	/
COc1ccc2c(CSc3nnc(-c4cccs4)n3N)cc(=O)oc2c1
  /	-0.4
S=C(NC1CCCCC1)N(Cc1ccccc1)Cc1ccccc1
  -0.27	0.4
CCn1nc(C)c(N=Cc2ccc(N(C)C)c(Br)c2)c1C
  -1.7	-0.25
CCC[C@@H]1C[C@@H](C(=O)NC(C(C)Cl)C2O[C@H](SC)[C@H](O)[C@@H](O)[C@H]2O)N(C)C1 (stereo not given in full)
  0.075	/
CC1(C)Cc2nc3sc4c(N5CCNCC5)ncnc4c3cc2CS1
  14	-0.6
CCS(=O)(=O)N1Cc2ccccc2CC1C(=O)OCC(=O)Nc1ccc(C(F)(F)F)cc1 (stereo not given)
  /	-0.3
N#C/C(=N\O)c1nc(-c2ccc(F)cc2)cs1
  0.8	-0.7
Cc1noc(C(=O)NCCc2ccccc2)c1Cl
  -0.24	1.1
CCOc1ccccc1-c1nc(-c2ccc(NC(=O)c3cccs3)cc2)no1
  0.79	/
Nc1ccc(S(=O)(=O)NC(=O)c2ccccc2)cc1
  42&-0.23	0.4
CCOC(=O)C1=C(C)N=c2s/c(=C/c3ccc4c(c3)OCO4)c(=O)n2C1c1cc(OC)ccc1OC (stereo not given)
  -0.13	/
Cc1cccc(NCc2nnc(-c3ccccc3)o2)c1
  -0.17	-0.95
COc1ccccc1CNC(=O)Cn1cnc2sc(C(=O)Nc3ccc(F)c(Cl)c3)c(C)c2c1=O
  1.5	/
Nc1c(Nc2ccc(F)cc2)sc2c(O)cc(=O)[nH]c12
  -4.1*	-0.65
COC(=O)C1=C(C)SC(N)=C(C#N)C1c1ccc(OC(C)C)c(OC)c1 (stereo not given)
  1.8	-1.4
Cc1ccccc1C(=O)NNC(=O)OCCN1CCN(Cc2cc3ccccc3o2)CC1
  0.035	/
Cc1ccccc1Cn1cc(C)c(=O)[nH]c1=O
  0.21	0.3

Some of the entries above, set out differently.
| mol | Ba CapD inh | AID504770 |
| --- | --- | --- |
| Cc1ccccc1Cn1cc(C)c(=O)[nH]c1=O | 0.21 | 0.3 |
| CCS(=O)(=O)N1Cc2ccccc2CC1C(=O)OCC(=O)Nc1ccc(C(F)(F)F)cc1 (stereo not given) | / | -0.3 |
| CCCCn1c(=O)cc(O)c2ccccc21 | 1.6 | -0.95 |
| CN1CCN(c2ccc(Nc3ccnc4cc(Cl)ccc34)cc2)CC1 | -0.73 | / |
| CN(C)S(=O)(=O)c1ccccc1 | 0.38 | 1.8 |
| COc1ccccc1CNC(=O)Cn1cnc2sc(C(=O)Nc3ccc(F)c(Cl)c3)c(C)c2c1=O | 1.5 | / |

The list continues.
Below each compound: Ba CapD inh	AID504770
COc1ccc(N2C(=O)CSC2c2ccccc2C(F)(F)F)cc1Cl (stereo not given)
  -0.8	/
C[C@]12C=CC(=O)C=C1CC[C@@H]1[C@@H]2[C@@H](O)C[C@@]2(C)[C@H]1CC[C@]2(O)C(=O)CO
  -0.055	/
Cc1[nH]cnc1CN1CCCCCCC1
  0.45	-0.15
Cc1nc2cc(C(=O)NCCN(C)C)ccc2n1-c1ccccc1
  /	1.3
CN(CCc1ccccc1)C(=O)CSCC(=O)O
  0.07	/
CCOc1ccccc1CNC(=O)c1cn(-c2cccc(OC)c2)c(=O)c2ccccc12
  8.5	0.1
CCOC(=O)N1CCN(c2cc(Nc3c(C)cc(C)cc3C)c3c4c(onc24)-c2ccccc2C3=O)CC1
  -0.64	1.4
Cc1nc2cc(NC(=O)CCn3[nH]c(=O)ccc3=O)ccc2n1-c1ccccc1
  /	-0.55
O=S(=O)(Nc1ccc(Cl)cc1OC(F)(F)F)C(F)(F)F
  0.35	-0.15
COc1cc(-c2nc3c(C(C)(C)C)cc(C(C)(C)C)c(O)c3o2)ccc1O
  30	0.05
O=C(c1ccco1)N1CCN(S(=O)(=O)c2cc(Cl)c(Cl)s2)CC1
  0.15	/
Cc1c(NC(=O)CN2C(=O)S/C(=C\c3ccccc3)C2=O)c(=O)n(-c2ccccc2)n1C
  -1.2	/
CCc1ccc(-c2cc(C)no2)cc1S(=O)(=O)N1CCN(c2ccccn2)CC1
  0.29	-0.15
O=S(=O)(c1cccc(C(F)(F)F)c1)n1cccc1
  -0.52	1.2
CC(NC(=O)Cc1noc2ccccc12)c1ccccc1 (stereo not given)
  -0.84	1.4
COc1ccc(Cn2c(=O)[nH]c3cc(C(=O)NCc4ccccc4)ccc3c2=O)cc1
  -0.31	-1.4
CCCc1noc2c1C(c1cc(Br)ccc1F)C(C#N)=C(N)N2 (stereo not given)
  -0.61	1.4
CC1CCC(C(=O)N2CCCC2C(=O)O)CC1 (stereo not given)
  -0.27	0.35
C=CCn1c(SCC(=O)Nc2ccc(C)cc2)nc2sc(C)c(C)c2c1=O
  -0.47	/
Nc1cc(Cl)ccc1C(=O)OCC(=O)N1CCCC1
  98	-0.05
COC(=O)c1ccc2c(=O)n(Nc3ccc(Cl)nn3)c(SCc3cccc(F)c3)nc2c1
  1.4	/
COc1cc(C2CC(=O)Nc3ccc4ccccc4c32)ccc1OCc1ccccc1 (stereo not given)
  2.5	/
CO/N=C(\C(=O)NC1C(=O)N2C(C(=O)OCOC(=O)C(C)(C)C)=C(/C=C\c3scnc3C)CSC12)c1csc(N)n1 (stereo not given)
  /	-0.1
O=c1oc2ccccc2cc1-c1nnc(-c2cccc(Cl)c2)o1
  /	2.1
O=C(NCc1ccc(Cl)cc1)c1ccc(-n2cccn2)nc1
  -0.005	0.75
CC1CCN(C(=O)CSc2nnc3n2CCCCC3)c2ccccc2S1 (stereo not given)
  /	-0.25
O=C1C2C3c4ccccc4C(CO)(c4ccccc43)C2C(=O)N1c1ccc(Br)cc1 (stereo not given)
  -0.12	/
NS(=O)(=O)c1ccc(CCNC(=O)CSc2nc3ccccc3c(=O)n2CC2COc3ccccc3O2)cc1 (stereo not given)
  -0.58	/
O=C1CCC(C2CCC3(CC2)OCCO3)CC1
  /	-0.4
CNC(=S)N1CCn2cccc2C1c1ccc(F)cc1 (stereo not given)
  0.23	-0.15
Cc1sc2nc(CN3CCOCC3)nc(N(C)Cc3ccccc3)c2c1C
  /	-0.8
CSc1nnc2c(n1)OC1(Nc3ccccc3-2)C(=O)Nc2ccc(Cl)cc21 (stereo not given)
  2.2	0.5
COc1cccc(CSc2nnc(-c3ccc(F)cc3)o2)c1
  /	-0.3
CCOc1ccccc1/C=N/NC(=O)c1nnn(-c2nonc2N)c1CN1CCCCCC1
  -0.24	/
O=C(O)c1cc2c([nH]1)CCCC2
  /	-0.95
COC(=O)c1ccc2c(=O)n(CCC3=CCCCC3)c(SCc3cccnc3)nc2c1
  2.3	0
Cc1cc(C)cc(NC(=O)C2CC(O)CN2C(=O)Oc2ccccc2)c1 (stereo not given)
  -0.24	/
CNS(=O)(=O)c1ccc(F)cc1
  -1.3	-0.7
NC(N)=NC(N)=Nc1cccc(Cl)c1Cl
  -1	/
CCc1ccc(NC(=O)CCc2nc3cccnc3n2-c2ccccc2)cc1
  2.6	-1.1
COc1ccc(/C=N\N2CCN(Cc3ccc(C)cc3)CC2)cc1OC
  0.11	0.45
CNC(=O)C1=C(C)NC(=O)NC1c1ccc(Cl)cc1 (stereo not given)
  0.21	-0.75
CC1CCCN(CC(O)COCc2cccs2)C1 (stereo not given)
  0.46	1.4
Cn1c(=O)cc(Nc2ccccc2)c2c(=O)n(-c3ccccc3)c(=O)n(-c3ccccc3)c21
  0.2	-0.6
N#Cc1cccc(NC(=O)COCC(=O)O)c1
  -1.1	1.2
COC(=O)c1c(OC)cc(C)nc1C
  0.14	0.6
Cc1ccc(N2C(=O)C(N3C(=O)c4ccccc4C3=O)C2c2ccccc2Br)cc1 (stereo not given)
  0.22	/
Cc1oc2nc[nH]c(=O)c2c1C(=O)OC(C)C(=O)NC1CCCCC1 (stereo not given)
  /	0.8
COc1cccc(SCC(=O)c2sc(-c3ccccc3)nc2C)c1
  -0.84	/
CCc1ccc(NC(=O)Cn2c(C(=O)OC)cc3sccc32)cc1
  0.25	1.1
O=S(Nc1ccc2c(c1)OCCO2)C12CC3CC(CC(C3)C1)C2 (stereo not given)
  0.32	-0.55
COc1ccc2c(c1)c1nc3cc4ccccc4cc3nc1n2C(C)=O
  -0.47	/
CCCN(S(=O)(=O)c1ccc(S(=O)(=O)N2CCCC2)cc1)S(=O)(=O)c1cccc(Cl)c1
  /	1.7
CCOC(=O)C1=C(C)NC2=C(C(=O)CC(c3ccc(OC)c(OC)c3)C2)C1c1cccc([N+](=O)[O-])c1 (stereo not given)
  -0.92	/
CS(=O)(=O)c1ccccc1-c1nnc(NC(=O)COc2ccc(Cl)cc2)o1
  /	1.5
O=C1CSC(c2cn(-c3ccccc3)nc2-c2cc3ccccc3oc2=O)N1Cc1cccnc1 (stereo not given)
  8.1	/
COc1cc2c(cc1OC)CN(C(=O)CSc1nc3[nH]ncc3c(=O)n1-c1ccccc1)CC2
  -0.12	-1.2
CC(=O)Nc1cc(NC(C)=O)cc(C(F)(F)F)c1
  -0.98	1.1
Cc1[nH]c2ccccc2c1CCn1c(N)cc(=O)[nH]c1=O
  0.33	-0.25
NC1=NN(c2c(Cl)cc(Cl)cc2Cl)C(=O)C1
  -0.005	1

The list goes on, starting with the last two of the part before.
Below each compound: Ba CapD inh	AID504770
Cc1[nH]c2ccccc2c1CCn1c(N)cc(=O)[nH]c1=O
  0.33	-0.25
NC1=NN(c2c(Cl)cc(Cl)cc2Cl)C(=O)C1
  -0.005	1
CCCCCc1ccc(CN)cc1
  -0.56	/
Cc1occc1-c1nnc(SCC(=O)NCc2ccc3c(c2)OCO3)n1CC(C)C
  /	-0.2
CCOC(=O)C1=C(N)OC2=C(C(=O)CCC2)C12C(=O)Nc1ccccc12 (stereo not given)
  -0.39	/
COc1ccc(Oc2coc3cc(OC(=O)c4cncc(Br)c4)ccc3c2=O)cc1
  -0.015	/
COc1cccc(CNCC(O)Cn2nnnc2-c2ccccc2)c1 (stereo not given)
  0.69	-0.6
CCN(CC)CCN(C)CC1c2ccccc2Oc2ccccc21
  0.58	/
CCN1CCN(C(=O)C2c3ccccc3C(=O)N(Cc3ccc(F)cc3)C2c2ccc(OC)cc2)CC1 (stereo not given)
  -0.53	1.2
Cc1c(C(=O)NCCN2CCOCC2)sc2ncn(CC(=O)Nc3cccc(C(F)(F)F)c3)c(=O)c12
  0.41	/
Nc1ccc(Sc2ccccc2Cl)cc1
  -0.2	-1.4
CCN1CCCC1CNC(=O)c1cc(NC(C)=O)c(N(C)C)cc1OC (stereo not given)
  53	0.15
CC(C)C1CC(O)(C2(O)CCCCC2)ON1 (stereo not given)
  0.41	0.15
CC(C)c1ccc(NC(=O)c2cc(S(=O)(=O)NCc3ccccc3)ccc2F)cc1
  -0.98	/
CNC(=O)c1ccccc1Sc1cccc2cccc(C(=O)NC)c12
  -0.58	-0.95
O=C(CSc1nc2ccccc2o1)N1CCC(n2cccc2)CC1
  -0.6	-1.5
COc1ccccc1N1C(=O)C2C3C=CC(C3)C2C1=O (stereo not given)
  -1.1	-1.1
O=C1NC(=O)c2cccc3cccc1c23
  62	-0.85
CC(C)Oc1nc(-c2ccccc2)nc(-c2ccccc2)c1C#N
  -0.26	-0.85
N#Cc1c(-c2ccc3c(c2)OCO3)cc(-c2ccc(F)cc2)nc1N
  /	-1.1
N=C1C(c2nc(-c3ccc(Br)cc3)cs2)=C(O)CN1C1CCS(=O)(=O)C1 (stereo not given)
  /	-0.15
COC(=O)c1c(N)sc(/C(C)=C/C#N)c1C
  -1.9	-0.75
COc1ccccc1/C=C(/C(=O)OCC(=O)Nc1oc(C)c2c(C)n[nH]c(=O)c12)c1ccccc1
  /	0.1
Cc1ccn2c(/C=C(\C#N)c3ccccn3)c(-c3ccc(Cl)cc3)nc2c1
  0.27	/
